OX1R antagonist – blocks the human orexin 1 receptor | inhibition, % at 5 µM | CHO/OX1R cells, Fluo-8 calcium fluorescence, orexin A | hit rate 0.43% among 330,000 | AID 434989 | O43613;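 active means inhibition above its plate's threshold, mean inhibition of all tested compounds on the plate plus 3 SD, cut at about 37% in these data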;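 further: 0% = orexin A challenge wells and 100% = SB-334867-A antagonist wells; not every result past the cut was called active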
Target sequence (O43613 whole entry, looked up): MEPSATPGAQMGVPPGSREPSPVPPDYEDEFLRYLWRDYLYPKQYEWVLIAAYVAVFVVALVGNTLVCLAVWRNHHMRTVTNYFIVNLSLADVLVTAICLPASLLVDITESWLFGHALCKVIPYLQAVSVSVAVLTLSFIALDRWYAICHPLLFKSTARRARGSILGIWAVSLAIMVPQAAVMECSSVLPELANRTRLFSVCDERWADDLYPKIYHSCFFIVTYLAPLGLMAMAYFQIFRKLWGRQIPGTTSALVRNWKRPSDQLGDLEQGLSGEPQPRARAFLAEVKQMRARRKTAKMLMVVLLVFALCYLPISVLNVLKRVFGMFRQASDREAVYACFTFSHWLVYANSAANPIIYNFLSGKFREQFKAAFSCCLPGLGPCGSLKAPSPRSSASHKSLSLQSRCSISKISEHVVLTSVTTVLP
* marks the source's active call; other numbers are inactive results. This is a subset, and most or all hits are left out here.

canonical_smiles	OX1R antagonist
COc1ccc(C)cc1S(=O)(=O)Nc1ccc(F)c(Cl)c1	-24
c1ccc2c(-c3nc(C4CCCCC4)no3)cc(-c3ccncc3)nc2c1	-6
CCn1c(Sc2nc(C)nc3scc(-c4cccs4)c23)n[nH]c1=O	-12
COc1ccc(-c2nnc(SCC(=O)Nc3nncs3)o2)cc1	-6
COc1ccc(N2CC(C(=O)Nc3nnc(SCc4ccccn4)s3)CC2=O)cc1 (configuration not stated)	-15
CCOc1ccccc1/C=N/NC(=O)CSc1n[nH]c(=O)[nH]c1=O	-2
CCN1C(=O)[C@H]2[C@@H](c3ccc(C)cc3)N3C(=O)N(c4ccc(OC)cc4)C(=O)[C@@]3(Cc3ccccc3)[C@H]2C1=O	-20
CCc1nnc(NC(=O)CCN(c2cc(C)cc(C)c2)S(=O)(=O)c2ccc(Cl)cc2)s1	-13
O=C(c1ccccc1)N1CCN(C(=S)NCCc2ccccc2)CC1	-17
Cc1ccc(NC(=O)CSc2nnc(Cc3ccccc3)o2)c(C)c1	-17
COC(=O)[C@@]1(Cc2ccccc2)[C@H]2c3cc(C(=O)N4CCCC4)n(CCSCCO)c3C[C@H]2CN1C(=O)c1ccccc1	-16
CCOC(=O)c1cc(S(=O)(=O)NC2CCCCC2)cn1C	-17
CCCCN(C)Cc1c(C)[nH]c2ccc(Cl)cc2c1=O	8
CCOC(=O)C(c1ccccc1)C(Nc1cc(C(F)(F)F)cc(C(F)(F)F)c1)c1ccccn1 (configuration not stated)	-27
CCN(Cc1ccccc1)S(=O)(=O)c1c(C)n(C)c(=O)n(C)c1=O	-7
CC(=O)Nc1ccc(S(=O)(=O)Nc2nccc(C)n2)cc1	7
Cc1ccc(-c2nnn(CC(=O)N(c3ccccc3)C(C(=O)NC3CCCC3)c3ccncc3)n2)o1 (configuration not stated)	-14
CCOCCCN1C(=O)C(O)=C(C(C)=O)C1c1cccs1 (configuration not stated)	6
COc1cc(OC)c(C(=O)NCCCN2CCOCC2)cc1OC	-9
Cc1ccc(C(=O)Nc2nc(C)c(C(=O)N(C)C)s2)o1	4
CN(C)S(=O)(=O)c1ccc2nc(NC(=O)c3cccs3)sc2c1	-12
CCc1ccc2[nH]c(=O)c(CN(CCN(C)C)C(=O)Nc3ccccc3)cc2c1	-13
S=C(Nc1ccc(Oc2ccccc2)cc1)N1CCOCC1	-11
CCN(CC)C(=O)c1cc(-c2ccccc2OC)on1	-18
O=C1C=C(c2ccccc2)OC(c2ccccc2)O1 (configuration not stated)	-9
c1csc(C2C3=C(Nc4ncnn42)c2ccccc2OC3)c1 (configuration not stated)	-23
Cc1ccc(CN(C(=O)c2cccs2)C2CCS(=O)(=O)C2)cc1 (configuration not stated)	-7
O=C(NC1CCN(S(=O)(=O)c2ccc(Cl)cc2)CC1)C1CCCCC1	-10
CCS(=O)(=O)N1CCCC(C(=O)NCCN(C)Cc2ccccc2)C1 (configuration not stated)	-10
CCCN1C(=O)C(NC(=O)c2ccncc2)(C(F)(F)F)C2=C1CC(C)(C)CC2=O (configuration not stated)	3
COc1ccc(C2/C(=C(\O)c3ccc4c(c3)CC(C)O4)C(=O)C(=O)N2Cc2cccnc2)c(OC)c1 (configuration not stated)	-16
Cc1ccc(NC(=O)C(=O)c2c(-c3ccccc3)cc3ccccn23)cc1S(=O)(=O)N1CCOCC1	-28
CCOC(=O)c1sc(NN=C(C(=O)OC)C(=O)OC)c(C(=O)OCC)c1C	-22
O=C(c1ccco1)N1CCN(c2ccc(F)cc2)CC1	-10
COc1cccc(N2C(=O)CC(N3CCC(C(N)=O)(N4CCCCC4)CC3)C2=O)c1 (configuration not stated)	-15
COc1ccc(S(=O)(=O)Nc2cc(SCC(=O)O)c(O)c3ccccc23)cc1	-13
O=C(NN1C(=O)/C(=C/c2cccnc2)SC1=S)C(c1ccccc1)c1ccccc1	-4
CCOC(=O)C1(Cc2ccccc2C(F)(F)F)CCN(C2CCC2)CC1	-17
O=C(Cn1nc(Cc2cccnc2)c2ccccc2c1=O)NCc1ccc(F)cc1	-38
O=C(N/N=C/c1cccnc1)c1ccccc1	7
COc1cccc(NS(=O)(=O)CC23CCC(CC2=O)C3(C)C)c1 (configuration not stated)	-19
Cc1ccccc1CC1(CO)CCCN(Cc2ccccc2Cl)C1 (configuration not stated)	-30
CC(C)CC(=O)N1CCN(c2ccc(NC(=O)c3ccco3)cc2)CC1	-14
CON(C)S(=O)(=O)c1cccc(C(=O)NC2CCSc3ccccc32)c1 (configuration not stated)	-30
C=CCOc1ccc(/C=N/NC(=O)CN2CCCCC2)cc1OC	-7
CCCCNS(=O)(=O)c1ccc2nc(-c3cccnc3)cc(C(=O)NC(C)C)c2c1	-14
O=C1CC(C(F)(F)C(F)(F)C(F)(F)C(F)(F)F)=Nc2ccccc2N1	-2
Cc1nn(-c2ccccc2)c(Cl)c1C(=O)Nc1nnc(C2CCCCC2)s1	-41
Cc1cc(C)c(C)c(S(=O)(=O)NCCCN2CCOCC2)c1C	-23
O=C(CCn1c(=O)[nH]c2ccsc2c1=O)N1CCN(c2ccc([N+](=O)[O-])cc2)CC1	-18
O=C(O)CCN(CC(=O)c1ccc(Cl)cc1)S(=O)(=O)c1ccc([N+](=O)[O-])cc1	-13
CN(C)N1C(N)=C(C#N)C(c2cccc(Cl)c2)C2=C1CCCC2=O (configuration not stated)	-35
CC1CCCCN1S(=O)(=O)c1ccc(NC(=O)c2cccs2)cc1 (configuration not stated)	-14
O=C1CCCN1C(=O)CCC(=O)N1CCCC1=O	-3
Cc1cc([N+](=O)[O-])nn1CCCC(=O)NCc1ccccc1	-22
O=C(COc1ccc(NS(=O)(=O)c2ccc(F)cc2)cc1)N1CCOCC1	-6
CN(CC(=O)N1CCCc2c1c(=O)oc1ccc(O)cc21)Cc1ccccc1	-11
COc1ccc(C(CCN2CCN(c3ccccc3)CC2)c2c(O)cc(OC)cc2OC)cc1 (configuration not stated)	-16
COc1ccc(/C=C/C(=O)NC(=S)NNC(=O)c2cc(OC)c(OC)c(OC)c2)cc1OC	-1
Cc1ccc(C(=O)OCC(=O)Nc2cc(S(=O)(=O)N3CCOCC3)ccc2C)cc1	-20

(continued)
canonical_smiles	OX1R antagonist
O=[N+]([O-])c1ccc(NC(=S)N2CCOCC2)cc1	-6
NC1=NC[C@@H](Cc2ccc(O)cc2)N1CCC12CC3CC(CC(C3)C1)C2	-18
CC1CCCCN1CCNC(=O)c1ccc2c(c1)N(Cc1cccc(Cl)c1)C(=O)c1ccccc1S2=O (configuration not stated)	8
CCCNC(=O)C1(CC2CC(c3ccccc3)=NO2)CCN(C(=O)C2CCCC2)CC1 (configuration not stated)	-22
CC(=O)Nc1ccc(/C=N/NC(=O)c2cccc(S(=O)(=O)N3CCOCC3)c2)cc1	-3
CC1CCN(C(=O)CSc2nc3ccccc3c(=O)[nH]2)CC1	-5
COc1ccc(C(CC(=O)c2ccccc2)S(=O)(=O)c2ccc(C)cc2)cc1 (configuration not stated)	-22
CCN(CC)C(=S)Oc1c(Cl)cccc1Cl	-16
Cn1cnnc1SCc1ccccc1Br	-8
C#CCOC(=O)CCCC(=O)Nc1ccccc1OC	-2
CC(=O)CSc1nnc(-c2ccco2)n1-c1ccccc1	-3
O=C(NC1CC1)C1=C[C@H](c2c[nH]c3ccccc23)C[C@H](OCc2ccc(CO)cc2)O1	-8
CCN(CC)CCN(Cc1cc2cc(C)ccc2[nH]c1=O)C(=O)Nc1ccccc1OC	-21
COc1cccc(CN2CCNC(=O)C2CC(=O)N(C)CCc2ccccn2)c1 (configuration not stated)	-11
Cc1ccc(NC(=O)CN2C(=O)/C(=C\c3cccs3)SC2=S)cc1	4
CC(C(=O)NCc1ccc2c(c1)OCO2)N1c2cccc3cccc(c23)S1(=O)=O (configuration not stated)	-5
c1ccc(C2CCC3(CC2)Oc2ccccc2C2CC(c4cccnc4)=NN23)cc1 (configuration not stated)	-18
Cc1cc(-n2cccn2)ccc1CN1CCN(C2CCCC2)C(CCO)C1 (configuration not stated)	-27
CCOc1ccc2ccccc2c1CNc1nnnn1C	-10
C=C(C)c1cccc(C(C)(C)NC(=O)NC2CCN(Cc3ccccc3)CC2)c1	-35
COC(=O)C(C)n1cnc2c(nnn2-c2ccccc2)c1=O (configuration not stated)	-1
O=C(COC(=O)/C=C/c1ccccc1)Nc1cccc(Oc2ccccc2)c1	-20
C=CCNc1oc(-c2cccs2)nc1S(=O)(=O)c1ccccc1	-13
O=C(COC(=O)CC(c1ccccc1)c1ccccc1)Nc1cccc(F)c1	-4
CCN(CC)c1ccc(/C=N/n2c(-c3ccccc3Br)n[nH]c2=S)cc1	-6
CCOc1ccc(C(=O)NNC2CC(=O)N(Cc3ccc(Cl)cc3)C2=O)cc1OC (configuration not stated)	-10
O=C(O)CN1C(=O)C2(OCCCO2)c2ccccc21	6
CC(=O)n1cc([C@@H]2C=C(C(=O)N3CCOCC3)O[C@H](OCCCCO)C2)c2ccccc21	-15
COc1ccc(NC(=O)CN(C)S(=O)(=O)c2ccccc2)c([N+](=O)[O-])c1	-22
CN(C)/N=C/c1ccc([N+](=O)[O-])cc1[N+](=O)[O-]	-18
CCc1ccc(S(=O)(=O)c2nnn3c2nc(NCCNC(C)=O)c2ccccc23)cc1	-27
CCOc1ccccc1OCC(=O)Nc1cc(S(=O)(=O)N2CCCCC2)ccc1OC	-30
O=C(Oc1ccc2cc(Br)ccc2c1)N1CCCCCC1	-14
Cc1cc(C(C)(C)C)cc(C)c1C(=O)O	-12
CC[N+](C)(CC)CC(=O)OCC1C(C)C=C(C)CC1C (configuration not stated)	-1
Cc1cc(NC(=O)CCCn2nc([N+](=O)[O-])cc2C)no1	-9
COc1ccccc1-c1cc(C(=O)N2CCCCC2)no1	-24
Cc1ccc(Cl)c(OCC(=O)Nc2cc(S(=O)(=O)N3CCOCC3)ccc2N2CCCC2)c1	-32
CC(C)=CCc1c(-c2ccc(O)cc2O)oc2c3c(cc(O)c2c1=O)OC(C)(C)C=C3	-19
O=C(NC1CCN(Cc2cccc([N+](=O)[O-])c2)CC1)c1ccccc1	-25
Cn1nccc1C(=O)Nc1ccc(S(=O)(=O)N2CCCC2)cc1	6
O=C1/C(=C/c2cccc(Cl)c2)CSc2sccc21	-42
Cc1ccccc1/C=c1\s/c(=C\C(=O)C(C)(C)C)[nH]c1=O	7
COC(=O)C(NC(=O)c1ccccc1)c1ccccc1 (configuration not stated)	-12
CCCn1c(=O)[nH]c(=O)c2c1nc(-c1ccc(OC)c(Br)c1)n2CCOC	-28

Two compounds picked at random from the list so far, as already listed:
canonical_smiles	OX1R antagonist
O=C(Oc1ccc2cc(Br)ccc2c1)N1CCCCCC1	-14
Cc1cc(C(C)(C)C)cc(C)c1C(=O)O	-12

Among those listed so far, these contain bromine:
canonical_smiles	OX1R antagonist
Cn1cnnc1SCc1ccccc1Br	-8
CCN(CC)c1ccc(/C=N/n2c(-c3ccccc3Br)n[nH]c2=S)cc1	-6
O=C(Oc1ccc2cc(Br)ccc2c1)N1CCCCCC1	-14
CCCn1c(=O)[nH]c(=O)c2c1nc(-c1ccc(OC)c(Br)c1)n2CCOC	-28

(listing goes on)
canonical_smiles	OX1R antagonist
NC(=O)c1cc(-c2ccncc2)nc2ccc(Cl)cc12	-1
NNC(=O)c1sc2nc(N3CCOCC3)c3c(c2c1N)CCCC3	-27
CCN(C(=O)c1ccc(Br)cc1)c1ccccc1	1
CCC(=O)Nc1cc(Cl)ccc1C(=O)O	2
Nc1nc(NCC(=O)O)nc(NCc2ccccc2)c1[N+](=O)[O-]	9
COc1ccc(N2CCN(C(=O)c3ccc(NS(=O)(=O)c4ccc(F)cc4)cc3)CC2)cc1	9
CC1=C(C(=O)Nc2ccccc2C(=O)NCCCOC(C)C)SCCO1	-22
COc1ccc(NC(=O)CN(C)C(=O)c2ccccc2CCc2ccccc2)cc1	-31
CCN(C(=O)COC(=O)c1cccn1C)C1CCS(=O)(=O)C1 (configuration not stated)	-21
N#C/C(=C/c1ccccc1[N+](=O)[O-])c1nc(C2CC2)cs1	-18
COC(=O)[C@H](Cc1ccccc1)NC(=O)Nc1ccc(C)cc1	-2
Cc1cc(C)c(C#N)c(SCC(=O)N(C)C2CCCCC2)n1	-12
CC1CCN(C(=O)Cn2cc(C(=O)C3CC3)c3ccccc32)CC1	-32
CCCCc1cc(=O)oc2c(C)c(OCC(=O)NCCN3CCOCC3)ccc12	-35
CCN1C(=O)C2(C(C#N)=C(N)Oc3n[nH]c(C(C)C)c32)c2ccccc21 (configuration not stated)	-18

Single values from the results shown.
In OX1R antagonist, CCC(=O)Nc1cc(Cl)ccc1C(=O)O has 2
In OX1R antagonist, COc1ccc(NC(=O)CN(C)C(=O)c2ccccc2CCc2ccccc2)cc1 has -31
In OX1R antagonist, CC1CCN(C(=O)Cn2cc(C(=O)C3CC3)c3ccccc32)CC1 has -32
In OX1R antagonist, CCN(C(=O)c1ccc(Br)cc1)c1ccccc1 has 1
In OX1R antagonist, NC(=O)c1cc(-c2ccncc2)nc2ccc(Cl)cc12 has -1
In OX1R antagonist, CCN1C(=O)C2(C(C#N)=C(N)Oc3n[nH]c(C(C)C)c32)c2ccccc21 (configuration not stated) has -18

Further structures
canonical_smiles	OX1R antagonist
COc1ccc(CNS(=O)(=O)c2ccc3c(c2)CCN3C(=O)C2CC2)cc1	-12
CC(C)(C)C1CCc2onc(C(=O)O)c2C1 (configuration not stated)	-5
CC1CC=C2C(C#N)=C(N)C(C#N)(C#N)C(c3cccs3)C2C1 (configuration not stated)	-23
COC(=O)C(NC(=O)CNS(=O)(=O)c1ccc(Br)cc1)c1ccccc1 (configuration not stated)	-18
CCOc1ccc(Nc2nc3cc(S(=O)(=O)CC)ccc3o2)cc1	-18
CC(C)c1nnc(SCC(=O)N2CCOCC2)n1C	-8
O=C(Cn1cnc2ccccc2c1=O)NC1CCS(=O)(=O)C1 (configuration not stated)	-8
CCc1ccc(/C=C2\Oc3c(ccc(O)c3CN3CCN(C)CC3)C2=O)cc1	-28

From PubChem
